RN4220 kill – growth inhibition of S. aureus RN4220, primary screen, OD600. 16 h. inhibition, % (concentration not given with the values). actives 0.33% (n = 330,000);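 active = z-score of -3 or lower and OD600 up to 0.18 on both plates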;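 note: plate controls were untreated cells for no effect and reference antibiotic for full effect; stock transfer was 100 nL into about 80 µL; one replicate is shown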
Mtb hypoxia inh – PubChem AID 1159583. M. tuberculosis hypoxia-regulated fluorescent reporter, fluorescence. fluorescence inhibition, % (no concentration beside the values). actives 0.1% (n = 300,000);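 active = 35 to 45% if threefold the growth effect, above 45% if 1.5-fold the growth effect; inactive = the rest, general growth blockers included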;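 note: wells of about 50 µL received 100 nL stock; 0% = vehicle wells and 100% = reference inhibitor wells; whole bacteria with a GFP reporter of the hypoxia response; strong numbers were not always called active; many hits fall short of the cut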
Autofluor counter – flagged as autofluorescent in microsphere protease counterscreen; actives 3.1% (n = 360,000); fluorescence intensity (test concentration not listed); compound autofluorescence counterscreen, microsphere flow cytometry; hits give high values; AID 624483;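 active = at least 3 SD above the mean of all compounds, about 16000 in these data; inconclusive = too few beads counted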;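 note: 100 nL of 1 mM stock went into each well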
ugtP null kill – growth inhibition of ugtP-null S. aureus, primary screen, RN4220 ugtP deletion, OD600. 16 h; some inactives read as strong as hits. AID 1259309, 2017. growth inhibition, % (no concentration beside the values). actives 0.54% (n = 330,000);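 active = z-score under -3 and OD600 up to 0.15 on both plates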;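 note: plate controls were untreated wells for no effect and antibiotic for full effect; wells of about 80 µL received 100 nL stock; the first replicate is given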
PrP UTR inh – inhibition of PrP 5' UTR reporter expression; cell-based PrP 5' UTR mRNA reporter, plate reader; inhibition, % (concentration not given with the values); actives 0.35% (n = 340,000);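 active = every replicate at 50% or more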;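 note: 0 = median of the neutral control wells; tested in H4 reporter cells; numbers are from one replicate; inactives centre near -14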
BJeLR viability – MLPCN primary cell-based screen for lethality selective to Ras in HRASV12 cells | actives 0.17% (n = 300,000) | inhibition, % (test concentration not listed) | BJeLR (HRASV12) viability, CellTiter-Glo ATP luminescence, 48 h; reference of the scale not given here | AID 1554, 2009;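 active = replicate mean above 50%; inconclusive = above 50% but judged a plate artefact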;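 note: 50 nL library stock added to about 25 µL; numbers are from one replicate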
Mtb hypoxia inh growth – second read-out of Mtb hypoxia inh, no call of its own (marks repeat the call); growth inhibition, %; measured here: M. tuberculosis growth (absorbance);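 0% = vehicle and 100% = reference antibiotic; read after six days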
* = called active by the depositor; ? = inconclusive; / = not tested or not shown.

Structure	RN4220 kill	Mtb hypoxia inh	Mtb hypoxia inh growth	Autofluor counter	ugtP null kill	PrP UTR inh	BJeLR viability
Cc1cc(NC(=O)c2cc(-c3ccccn3)nc3c(Cl)cccc23)no1	0.2	2	4	5924	-4	-7	-8
O=C(c1ccc2c(=O)n3c(nc2c1)CCCCC3)N1CCN(c2ccc(Cl)cc2)CC1	13	-5	11	6549	4	-8	0
Cc1ccc(N2C(=O)NC(=O)/C(=C\c3ccc(N4CCOCC4)cc3)C2=O)cc1	4.9	3	1	2136	7	-19	6
Cc1ccc(C)c2[nH]c(=O)c(CN(Cc3cccs3)C(=S)NCc3ccco3)cc12	5.7	/	/	2201	-19	-7	8
COCCNC(=O)C(OC(=O)c1ccco1)c1ccc(OC)cc1 (configuration not stated)	5.7	-4	3	3472	4	-19	/
Cc1c(C=NNC(=O)c2ccc(Br)o2)cnn1C	1.0	4	-3	/	3	/	/
Cc1ccc(CN2CCN(/N=C/c3cccnc3)CC2)cc1	/	/	/	2045	/	-7	-12
O=C(NCc1ccco1)C(c1ccc(F)cc1)N(C(=O)Cc1cccs1)c1cccnc1 (configuration not stated)	3.0	3	12	4740	1	-11	5
CCn1c(CSc2nc(C)cc(C)n2)nnc1SCC(N)=O	3.7	2	-3	4569	8	-80	0
CC(=O)CC(=O)NC(=NC1CCCCC1)Nc1nc(C)cc(C)n1	0.0	9	4	?	-4	-7	-15
COc1cc2c(cc1OC)C(C)N(C(=O)/C=C/c1cc(OC)c(OC)c(OC)c1)CC2 (configuration not stated)	2.3	-10	4	2919	1	-12	-2
O=C(CNC(=O)c1cccc(F)c1)OCC(=O)N1CCCc2ccccc21	6.3	9	6	6855	-1	-17	-18
CC(C)CC1CN=C(Nc2ccccc2)N1CC1CCCC1 (configuration not stated)	8.4	10	8	/	2	/	/
O=C(CC1Oc2ccccc2NC1=O)NCCCN1CCOCC1 (configuration not stated)	2.7	/	/	5304	3	-19	0
COc1cccc(CN2CC(C(=O)NCCCc3ccncc3)CCC2=O)c1 (configuration not stated)	0.6	10	8	5106	3	-17	0
O=C1C=CC(=O)N1CCNc1ncc(C(F)(F)F)cc1Cl	9.4	11	-4	4751	24	-18	-14
COc1cccc(NS(=O)(=O)NC(=O)c2c(C)[nH]c3ccccc23)c1	1.3	5	-3	4922	11	-8	-6
CC1=NNC(=O)C1CC(=O)N/N=C/C(Br)=C/c1ccccc1 (configuration not stated)	/	/	/	3466	/	-17	-3
CCn1c(SCC(=O)NC(=O)NCc2ccco2)nnc1-c1cccs1	0.9	/	/	4728	-3	-41	1
COc1ccc(CC(=O)NC(C)(C)C)cc1S(=O)(=O)N1CCOCC1	-1.2	-8	9	4317	-5	-7	12
O=C1CCc2cc(S(=O)(=O)NCc3ccc(F)cc3)cc3c2N1CC3	5.5	9	11	?	2	-11	2
O=C(CNC(=O)c1cccc(F)c1)NN=Cc1cc(Br)ccc1OC(=O)/C=C/c1ccco1	-7.4	-4	-2	/	1	/	/
CC1CCc2c(sc3ncn4c(SCC(=O)NCc5ccco5)nnc4c23)C1 (configuration not stated)	1.6	7	7	6841	-2	-18	-2
CCN(C(=O)CSc1nc2cc(C(=O)OC)ccc2c(=O)n1Cc1ccco1)c1cccc(C)c1	4.7	6	0	16983*	-10	-6	1
COc1ccc(CCNC(=O)CCS(=O)(=O)Cc2ccccc2C)cc1OC	3.4	-12	0	3754	8	-15	0
NNCCc1ccccc1	/	/	/	5892	/	-31	-13
Fc1ccc(C2NC(=S)NC3=C2N2CCC3CC2)cc1 (configuration not stated)	3.6	3	2	10523	4	-13	-4
CCSc1ncc(/C=N/Nc2ccc(Cl)cc2)n1C	/	/	/	2576	/	-79	-2
N#C/C(=C\c1c(N2CCC(C(N)=O)CC2)nc2ccccn2c1=O)S(=O)(=O)c1ccccc1	1.8	/	/	4227	6	-26	0
COc1cc2c(cc1NC(=O)C(C)OC(=O)C1CC(=O)N(Cc3ccco3)C1)oc1ccccc12 (configuration not stated)	3.5	6	8	2438	-12	-65	4
COc1ccc(C2=NN(C(=O)COc3ncnc4ccccc34)C(c3ccco3)C2)cc1 (configuration not stated)	1.6	4	2	3478	5	-4	-1
CN(CCOc1ccccc1)C(=O)c1ccc2c(=O)n3c(nc2c1)CCC3	1.6	-3	3	?	9	-26	6
COC(=O)c1cccc(COC(=O)c2ccc(CS(=O)(=O)c3ccc(C)cc3)cc2)c1	3.8	11	1	9419	1	-20	-3
CC1(C)CC(=O)C2=C(C1)N(c1ccccc1)C(=O)C2(O)C(F)(F)F (configuration not stated)	20	-4	3	10661	0	-31	-3
Cc1oc2cc(O)ccc2c(=O)c1Oc1ccccc1	-3.2	/	/	2600	7	-11	-1
CCOC(=O)N1CCN(C(=O)COC(=O)C2CCN(S(=O)(=O)c3ccc(C)c(C)c3)CC2)CC1	3.1	12	3	5912	3	-5	11
O=C(NCC(c1cccnc1)N1CCN(c2ccccc2)CC1)c1ccco1 (configuration not stated)	1.0	18	9	8950	3	-19	3
COc1ccc(-c2cc(-c3ccccc3)nc(SCC(=O)Nc3ncc(C)s3)c2C#N)cc1	-1.4	4	2	2500	-28	-21	-2
C/C(=N\NC(N)=S)c1ccc(-n2ccnc2)cc1	/	/	/	3815	/	3	4
O=C(Cn1cnc2c(OCc3ccccc3)ncnc21)NCc1nc2ccccc2[nH]1	-1.4	0	-5	2978	6	-5	/
COc1cc(/C=N/S(=O)(=O)CCc2ccccc2)cc(OC)c1O	/	/	/	2076	/	-1	-11
CC(C)(C)C(=O)CN1CCN(C2c3ccccc3-c3ccccc32)CC1	4.4	1	5	21967*	11	3	-29
O=C(Cc1ccccc1)NCC(=O)N/N=C/c1ccc(C(=O)O)cc1	/	/	/	7219	/	12	-14
CCCOc1ccc(C(=O)NN=Cc2c[nH]c3ccc(Br)cc23)cc1	8.5	5	0	/	10	/	/
Cc1c(C(=O)OCC(=O)N2CCCC(C)C2)oc2ccccc12 (configuration not stated)	-0.5	1	10	5678	2	-16	-14
Cc1ccc(NC(=O)COc2ccc(Br)cc2CO)cc1	1.9	-1	11	22055*	-6	-75	5
Cn1cccc1CC(=O)NNC(=S)Nc1ccc(Cl)cc1Cl	2.1	9	5	2462	0	5	-4
CC(C)(C)NC(=O)COC(=O)c1ccccc1NC(=O)c1ccco1	5.1	1	0	3466	3	-19	1
O=C(Nc1c2c(nn1-c1cccc(Cl)c1)CS(=O)(=O)C2)c1ccco1	5.7	7	1	4141	11	-5	-3
CCCCn1c(N)c(N(CC(C)C)C(=O)CCCn2c(=O)oc3ccccc32)c(=O)[nH]c1=O	1.0	4	-5	4604	1	-3	-9

The list goes on.
Structure	RN4220 kill	Mtb hypoxia inh	Mtb hypoxia inh growth	Autofluor counter	ugtP null kill	PrP UTR inh	BJeLR viability
COc1ccc(C(=O)NCCc2nnc(SCC(=O)Nc3ccccc3C(C)C)n2C)cc1	4.7	5	5	20025*	0	-20	-18
O=C(Cn1c(=O)oc2ccccc21)N1CCN(S(=O)(=O)c2ccccc2)CC1	-0.8	-7	4	3692	-3	0	/
CN(C)c1ncnc2c1ncn2C1CCCCO1 (configuration not stated)	-1.5	19	9	3349	2	-22	/
CN(CC(=O)Nc1ccccc1Br)C(=O)c1cc2c(s1)CCCCC2	4.5	1	-1	/	5	-59	-1
CC(C)(C)NN=C1CC(c2ccccc2)Oc2ccccc21 (configuration not stated)	-8.4	14	1	/	94*	/	/
CN(C)CCCN(Cc1cc2cc3c(cc2[nH]c1=O)OCO3)C(=S)Nc1ccccc1	2.9	10	1	2710	3	-12	-2
CN1CCN(c2ccc(-c3cccc(NC(=O)COc4ccc(Cl)cc4Cl)c3)nn2)CC1	-1.5	18	11	5722	-2	-8	2
CC(C)OC(=O)CSc1nnc(CNc2ccc(Cl)cc2)n1Cc1ccccc1	1.5	/	/	4724	3	-20	-4
Cc1cc(NC(=O)c2ccc(S(=O)(=O)Nc3ccccc3)cc2)no1	2.6	5	4	6589	-3	-14	2
Cc1cc(NC(=O)COC(=O)C2CCN(C(=O)c3ccc(Cl)cc3)CC2)no1	1.6	/	/	4668	3	-28	-4
O=C(O)CCCNS(=O)(=O)c1ccc(NCc2ccccc2)c(C(=O)O)c1	-10	14	7	2854	2	-15	-3
CCOC(=O)NN1C(=O)c2ccccc2NC1c1ccccc1 (configuration not stated)	13	-3	-4	7516	-2	-17	-1
CC(=O)N1CCN(CC(c2ccccc2)c2ccccc2)CC1	3.9	5	0	3037	10	-8	2
Cc1ccc(NC(=O)CN(C)C(=S)NC2CC2)cc1	10	-5	9	4956	4	-20	31
COCCNS(=O)(=O)c1cc(OC)c(C)cc1C	2.6	5	2	4653	3	-42	4
Cc1cnc(C(=O)OCC(=O)Nc2ccc(Br)cc2F)cn1	6.0	12	9	/	5	-14	/
CCOC(=O)C1(CC2CCCCO2)CCN(C(=O)Nc2ccc3c(c2)OCO3)CC1 (configuration not stated)	7.0	9	-4	4408	-2	-15	-11
COc1cccc(CN(C)S(=O)(=O)c2c(C)noc2C)c1OC	5.1	0	-4	?	6	-8	/
NC(=O)C1CCN(C(=O)c2ccc(OCC(=O)Nc3cccc(C(F)(F)F)c3)cc2)CC1	0.5	3	3	5030	0	-5	-10
O=C(CSc1ncnc2c1cnn2-c1cccc(Cl)c1)NCC1CCCO1 (configuration not stated)	0.4	4	-18	/	10	-5	-7
CCCCn1c(N)c(N(CC)C(=O)c2ccc3c(c2)S(=O)(=O)c2ccccc2C3=O)c(=O)[nH]c1=O	5.6	9	8	9350	-1	-16	7
COc1cccc(Cn2cc(N)cn2)c1	-1.2	-8	8	5342	-7	-22	3
c1ccc(-c2ccccc2OCc2nnc3n2CCC3)cc1	8.4	1	5	3486	-7	-12	5
OCC1(Cc2ccccc2)CCCN(Cc2c[nH]c3ccccc23)C1 (configuration not stated)	-7.8	-8	-2	4085	8	-6	-2
CCCCN(C(=O)c1cc(CC)c(C)s1)c1c(N)n(CCC)c(=O)[nH]c1=O	1.2	-1	5	?	-5	-12	7

Five compounds out of the list, sorted by molecular weight, high to low.
Structure	RN4220 kill	Mtb hypoxia inh	Mtb hypoxia inh growth	Autofluor counter	ugtP null kill	PrP UTR inh	BJeLR viability
NC(=O)C1CCN(C(=O)c2ccc(OCC(=O)Nc3cccc(C(F)(F)F)c3)cc2)CC1	0.5	3	3	5030	0	-5	-10
Cc1ccc(C)c2[nH]c(=O)c(CN(Cc3cccs3)C(=S)NCc3ccco3)cc12	5.7	/	/	2201	-19	-7	8
Cc1cnc(C(=O)OCC(=O)Nc2ccc(Br)cc2F)cn1	6.0	12	9	/	5	-14	/
CC(=O)N1CCN(CC(c2ccccc2)c2ccccc2)CC1	3.9	5	0	3037	10	-8	2
NNCCc1ccccc1	/	/	/	5892	/	-31	-13

Further entries
Structure	RN4220 kill	Mtb hypoxia inh	Mtb hypoxia inh growth	Autofluor counter	ugtP null kill	PrP UTR inh	BJeLR viability
O=C(O)C(Cc1cc2ccccc2[nH]1)N1C(=O)C2CC=C(Cl)CC2C1=O (configuration not stated)	2.6	/	/	4242	-3	-17	2
CC1=[N+]([O-])C(C)(C)CC(C)(C)c2ccccc21	2.5	/	/	2395	7	-3	1
O=C(Nc1ccc2nc(-c3cccs3)[nH]c2c1)c1cccs1	-0.9	/	/	4671	7	-47	-5
CC(Oc1ccc(Cl)cc1)C(=O)NCC1CCCO1 (configuration not stated)	4.6	22	8	4685	5	3	1
CCCC(C)NC(=S)Nc1cc(C)cc(C)c1 (configuration not stated)	5.3	1	-11	3394	2	-14	-19
COc1ccc(N(CC(=O)N2CCN(Cc3ccccc3)CC2)S(C)(=O)=O)c(OC)c1	0.9	15	3	4225	9	-19	9
CSCC[C@H](NC(=O)c1cc([N+](=O)[O-])ccc1Cl)c1nc2ccccc2[nH]1	17	-12	-3	2794	12	-3	-7
COC1OC2COC(c3ccccc3)OC2C(OC(=O)c2ccccc2)C1OC(=O)c1ccccc1 (configuration not stated)	2.5	17	3	3165	16	3	/
N#Cc1cnn2cc(CCN3CCOCC3)c(-c3ccc(F)cc3)nc12	0.9	-2	14	3214	-1	45	1
